Screening results as filed in PubChem.
LANA-nucl inh: LANA-nucleosome interaction inhibition; FITC-LANA1-23 / chicken nucleosome fluorescence polarization; active compounds read low; z-score (concentration not given with the values); actives 0.3% (n = 51,000);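 active = both repeat wells score below -2 in polarization z-score versus plate sample wells, excluding overly bright wells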;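 also: 100 nL library stock added to about 30 µL; numbers are from one replicate; some results filed as inactive read as strong as hits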
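Test system: purified chicken nucleosomes with FITC-labelled LANA N-terminal peptide (1-23); Input: 240 nM purified chicken nucleosomes (480 nM peptide binding sites), final; Medium: TEN-BT buffer, pH 7.5; Timing: 10–45 min, room temperature; Technique: fluorescence polarization, 480 nm excitation, 535 nm parallel and perpendicular emission; Replication: duplicates.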
BasE inh: inhibitors of Acinetobacter baumannii siderophore enzyme BasE | purified BasE, fluorescence polarization binding displacement | inhibition, % (concentration not given with the values) | actives 0.1% (n = 84,000) | AID 485350;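 active = both replicates above 25% with normal brightness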;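 also: 0% = negative plate control signal and 100% = positive plate control signal; stock transfer was 100 nL into about 30 µL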
* hit, by the source's call; x = not tested or not shown; & = joins results of further samples.

SMILES | LANA-nucl inh | BasE inh
Brc1ccc(Nc2ncnc3c2cnn3-c2ccccc2)cc1 | -0.25 | 1.8
CCCCNC(=O)Cn1c(=O)oc2ccccc21 | x | -1.1
COc1cc2c(cc1OC)C(c1cccs1)N(C(=O)C1CC1)CC2 (stereo not given) | x | -1.4
CCN(CC(=O)Nc1ccc(OC)cc1)C(=O)Cc1cccs1 | x | -2.7
CN=c1scc(-c2cccs2)n1/N=C/c1ccccc1O | x | -2.7
O=C1NC(=Nc2ccccc2)S/C1=C/c1cccs1 | x | 1.4
Cc1[nH]c2ccccc2c1C(=O)CN1C(=O)NC2(CCOc3ccccc32)C1=O (stereo not given) | x | 3.8
Cc1ccc2c(c1)nnn2C1CCN(CC(=O)N(c2ccccc2)c2ccccc2)CC1 | -0.067 | -0.9
Cc1sc2nc(C(C)C)n3c(=S)[nH]nc3c2c1C | 0.76 | 2.3
CC1CN(C(=O)CSc2nc3scc(-c4ccccc4)c3c(=O)n2N)CC(C)O1 (stereo not given) | x | 1.0
Cc1cccc(CC(=O)Nc2cc(C)c3c(=O)oc4ccccc4c3n2)c1 | 0.26 | -4.2
O=c1onc(-c2cccc(C(F)(F)F)c2)n1-c1ccccc1 | 0.83 | -0.4
CCN(CC)c1ccc(/C=C/C(=O)NCCN2CCC(N(C)C3CCCCC3C)CC2)cc1 (stereo not given) | 0.096 | -4.4
COc1cccc(NC(=O)c2cnc(SC)n(C)c2=O)c1 | -0.35 | -0.1
CC(=O)Nc1oc(-c2ccco2)c(-c2ccco2)c1C#N | x | 4.2
CN1CCC(NCc2ccccc2)CC1 | -0.88 | 2.2
CC(Sc1ncnc2ccccc12)C(=O)O (stereo not given) | -1.2 | 5.4
O=C(CSc1nnc(-c2sc3ccccc3c2Cl)o1)N1CCN(C(=O)c2ccco2)CC1 | x | 0.5
CNC(=O)CSc1cn(CC(=O)N(C(C)C)C(C)C)c2ccccc12 | -1.5 | 1.8
CCOC(=O)N1CCN(Cc2sccc2C)CC1 | 0.61 | 2.2

Grouped by structure, the entries above containing a furan ring, fused or not
SMILES | LANA-nucl inh | BasE inh
CC(=O)Nc1oc(-c2ccco2)c(-c2ccco2)c1C#N | x | 4.2
O=C(CSc1nnc(-c2sc3ccccc3c2Cl)o1)N1CCN(C(=O)c2ccco2)CC1 | x | 0.5

Continued.
SMILES | LANA-nucl inh | BasE inh
Cc1cc(Nc2ccc(O)cc2)n2c(nc3ccccc32)c1C#N | -1.4 | 0.4
O=C(Nc1ccccc1SCC(O)Cn1ccc2ccccc21)c1ccc(Cl)cc1 (stereo not given) | x | 2.5
Cn1c(SCc2cc(=O)n3ccsc3n2)nnc1C1CC1 | 0.54 | 2.0
O=C(NC1=NCCS1)c1cc(-c2ccc3c(c2)OCO3)nc2c1cnn2Cc1ccc(Cl)cc1 | x | -1.2
CC1=C(C(=O)Nc2ccc(C(=O)NCC3COCCO3)cc2)SCCO1 (stereo not given) | 0.93 | -1.3
O=C(Cc1cn2ccsc2n1)N/N=C/c1ccc(N2CCCCC2)cc1 | x | -0.6
CN1C(=O)c2ccccc2N2C(=O)CCC12C(=O)OCc1ccccc1F (stereo not given) | x | 0.6
COCCn1c(C)cc(C(=O)COC(=O)c2cccc(O)c2)c1C | x | 0.3
O=C(N1CCN(CCO)CC1)C(F)(F)C(F)(F)C(F)(F)C(F)(F)F | -0.4 | 1.7
Cc1c(C(=O)N2CCN(c3cccc(C(F)(F)F)c3)CC2)oc2ccccc12 | 0.69 | 4.2
CC(=O)Oc1ccc2c(c1C)CCCC2 | -0.33 | 0.2
NC(=O)C1CCN(S(=O)(=O)Cc2ccc(Cl)cc2)CC1 | -1.5 | x
N#CCCN(Cc1ccccc1)S(=O)(=O)c1ccc(F)cc1 | -1.3 | 2.2
CCOC(=O)c1ccc(-n2sc3ccccc3c2=O)cc1 | x | -1.5
COc1cc2[nH]c(=S)nc(NCCCOC(C)C)c2cc1OC | 0.033 | 1.4
Cc1ccc(COC(=O)c2ccc3c(c2)C(=O)N(CCCN2CCOCC2)C3=O)cc1 | x | 1.9
COc1ccc(CC(=O)OCC(=O)Nc2ccc3c(c2)OCCO3)cc1 | x | 1.8
O=C(c1cccc(NC(=O)N2CCSc3ncccc32)c1)N1CCC2(CC1)OCCO2 | x | -1.2
O=C(Nc1ccccc1)N1CCCC2CCCCC21 (stereo not given) | -0.35 | -0.3
CCS(=O)(=O)c1nc2ccccc2n1CC(=O)N(C(C)C)C(C)C | 0.47 | 1.7

Pulled by structure from the list above, 7 records:
SMILES | LANA-nucl inh | BasE inh
COc1ccc(CC(=O)OCC(=O)Nc2ccc3c(c2)OCCO3)cc1 | x | 1.8
Cc1ccc(COC(=O)c2ccc3c(c2)C(=O)N(CCCN2CCOCC2)C3=O)cc1 | x | 1.9
CCS(=O)(=O)c1nc2ccccc2n1CC(=O)N(C(C)C)C(C)C | 0.47 | 1.7
N#CCCN(Cc1ccccc1)S(=O)(=O)c1ccc(F)cc1 | -1.3 | 2.2
COc1cc2[nH]c(=S)nc(NCCCOC(C)C)c2cc1OC | 0.033 | 1.4
CCOC(=O)c1ccc(-n2sc3ccccc3c2=O)cc1 | x | -1.5
CC(=O)Oc1ccc2c(c1C)CCCC2 | -0.33 | 0.2

More structures.
SMILES | LANA-nucl inh | BasE inh
COCC(C)n1c(SCc2cc(=O)n3cc(C)ccc3n2)nc2ccccc2c1=O (stereo not given) | x | 1.5
COc1ccc2[nH]cc(CCNC(=O)NC3CCCCC3)c2c1 | -0.37 | 1.4
CCc1ccc(NC(=O)c2cc3cc4ccc(OC)cc4nc3o2)cc1 | -0.46 | -2.1
O=C1c2ccccc2C(=O)N1N1C(=O)c2ccccc2C1=O | -0.24 | 0.8
CN1C(=O)c2ccc(N)cc2C1=O | x | 4.4
Cc1ccc(C)c(N2CCN(CC(=O)c3ccc4c(c3)CCN4)CC2)c1 | 2.2 | -0.5
O=C1c2ccccc2C(=O)N1CN1C(=O)c2ccccc2C1=O | x | 2.5
O=C(/C=C/c1ccco1)OCN1C(=O)c2ccccc2C1=O | x | 0.7
Cc1ccc2occ(CC(=O)Nc3ccc(OC(F)F)cc3)c2c1 | 0.74 | 0.1
CC(=O)Nc1cccc(OCCCNC(=O)C2CCC2)c1 | 2.1 | -4.3
CC(OC(=O)c1ccccc1)C(=O)Nc1ccc2c(c1)OCCO2 (stereo not given) | x | 2.4
N#CC(C#N)=C1C=C(c2ccc3c(c2)OCCO3)Oc2ccccc21 | x | -7.7
COC(=O)c1ccc(CNC(=O)c2cccc(F)c2)cc1 | x | -0.7
c1ccc(-c2csc(N3CCOCC3)n2)cc1 | -0.34 | x
N#CCCn1cc(C(=O)CSc2n[nH]c(-c3ccc(Cl)cc3)n2)c2ccccc21 | x | -0.3
O=C(O)C1CC(O)CN1S(=O)(=O)c1cccc2nsnc12 (stereo not given) | -0.56 | -1.2
Cc1cc(C(=O)COC(=O)c2ccc3c(=O)n4c(nc3c2)CCC4)c(C)n1C | x | -0.7
CCCCCCNc1nc(Nc2ccc(I)cc2)nc(OC)n1 | 0.49 | 1.0
CCOC(=O)c1c(CN(C)C)n(C)c2cc(Br)c(O)c(CN(C)C)c12 | -0.33 | 4.0
CC(Sc1nnnn1Cc1cccs1)C(=O)Nc1ccc(S(=O)(=O)N2CCCCC2)cc1 (stereo not given) | x | -0.5
O=C(NCCCn1ccnc1)C1CC(c2cccc(Br)c2)=NO1 (stereo not given) | -0.39 | 0.6
N#CC(C(=O)Nc1ccccc1)=C1CCCCC1 | 2 | -4.4
O=C(N=Nc1c(O)[nH]c2ccccc12)c1cccnc1 | -0.037 | 0.5
S=c1[nH]nc2n1CCCCC2 | x | -0.4
CC(C)c1nc(NCCO)c2nnn(Cc3ccccc3)c2n1 | -0.76 | 1.9
CC1CCN(S(=O)(=O)c2cc(C(=O)O)ccc2Cl)CC1 | -1.5 | 1.8
O=C(CS(=O)(=O)c1ccccc1)Nc1ccc2c(c1)C(=O)NC2=O | -0.53 | 0.6
COc1ccc(N(C(=O)C(C)Oc2ccccc2)C2C=CS(=O)(=O)C2)cc1 (stereo not given) | 1.8 | -2.8
CC(Oc1ccc(Cl)cc1Cl)c1ccnc2ncnn12 (stereo not given) | -0.26 | x
O=C(CSc1nncs1)NC(=O)NC1CCCC1 | x | 1.9
O=C(O)C1CC=CCC1C(=O)Nc1ccccc1 (stereo not given) | 0.0005 | 0.4
CCOC(=O)c1cc2c(=O)n3ccccc3nc2n(CC2CCCO2)c1=NC(C)=O (stereo not given) | 0.76 | -3.6
Cn1nnc(-c2ccc(C(=O)O)cc2)n1 | -0.072 | -1.0
O=C(C1c2ccccc2Oc2ccccc21)N(Cc1ccco1)C1CCS(=O)(=O)C1 (stereo not given) | x | 0.4
CC(=O)NC1(c2ccccc2)CCN(C)C(c2ccccc2)C1C (stereo not given) | -0.61 | -1.5
CCC(Oc1cccc(Cl)c1)C(=O)NN1CCOCC1 (stereo not given) | -1.4 | 2.6
COc1ccc(-n2cc(C(=O)Nc3ccc(C(=O)N4CCCCC4)cc3)nn2)cc1 | 1.4 | 0.2
Cn1c(S(=O)(=O)CC(N)=O)nc2ccccc21 | 1 | -5.3
COc1ccc(-c2cc(C(F)(F)F)n3nc(C(=O)N4CCCCC4C)cc3n2)cc1 (stereo not given) | -0.04 | 3.5
COC(=O)C1CSCN1S(C)(=O)=O (stereo not given) | x | 0.3
CN1N=C(C(=O)Nc2nc3ccc(F)cc3s2)CCC1=O | x | -2.5
CCNC(=O)N1c2ccc(CC)cc2C(C)=CC1(C)C | x | -0.6
Cc1cc(C)c(NC(=O)COC(=O)C(O)c2ccccc2)c(C)c1 (stereo not given) | 1.4 | -0.3
Cc1ccc(C(=O)CCc2ccc(N)cc2)cc1 | 0.28 | x
CS(=O)(=O)/C(C#N)=C/Nc1cnccn1 | x | 2.3
NNc1c(F)c(F)nc(F)c1F | x | -0.4
O=C(Cc1ccccc1)Nc1ccccc1C(=O)O | 0.23 | -1.2
c1ccc(Nc2ccc(N3CCCC3)nn2)cc1 | 0.33 | 0.4
Cc1cc(C2(O)CSc3nc4cc(C(F)(F)F)ccc4n32)ccc1Cl (stereo not given) | x | 2.6
CC1CCCC(NS(=O)(=O)c2cccc(C(=O)O)c2)C1C (stereo not given) | x | 0.9
The list goes on:
SMILES | LANA-nucl inh | BasE inh
CC(C)(C)c1ccc(OCc2ncc(S(=O)(=O)c3ccccc3)c(N)n2)cc1 | x | 0.1
N#CC1=C2Sc3ccccc3N2CC1=O | 2.6 | -18
CN(CCO)C(C(=O)Nc1ccc(F)cc1)c1ccccc1 (stereo not given) | x | -0.1
O=C(NCc1ccncc1)c1cccc(S(=O)(=O)N2CCc3ccccc32)c1 | x | 0.7
Cc1ccc(C2C(C#N)=C(N)Nc3oc(C)nc32)cc1 (stereo not given) | -0.72 | 0.5
O=C(NCCCc1ccccc1)c1ccc(O)cc1 | -0.36 | 0.6
O=C(COC(=O)/C=C/c1ccc(S(=O)(=O)N2CCCCCC2)cc1)Nc1ccc2[nH]c(=O)[nH]c2c1 | x | 1.9
CSc1nc(C)nc(Nc2cccc(C(F)(F)F)c2)c1C#N | -0.31 | 3.0
O=C1/C(=C/c2ccc(Cl)cc2)COC/C1=C\c1ccc(Cl)cc1 | x | 2.6
CCOC(=O)COc1cc(=O)n(CC)c2ccccc12 | -1.1 | -3.2
CCOC(=O)C1=C(COCCN)NC(C)=C(C(=O)OC)C1c1ccccc1Cl (stereo not given) | 0.022&0.22&-1.1 | x
Cc1ccc(S(=O)(=O)CCc2nnc(NC(=O)CCCC(=O)Nc3cc(C)on3)s2)cc1 | -0.76 | 0.8
COc1ccc(CCN=Cc2ccc(Oc3nccc(C(F)(F)F)n3)cc2)cc1OC | x | 1.6
Cc1nn(S(=O)(=O)N2CCOCC2)c(C)c1Cl | -0.02 | 1.0
COc1ccc(OC)c(Nc2nc3cc(C)ccc3cc2C)c1 | 0.19 | 2.8
CCCCn1c(COc2ccc(OC)cc2)nc2cc(S(=O)(=O)N3CCOCC3)ccc21 | x | -2.2
CN(C)S(=O)(=O)c1ccc(C(=O)N2CCN(Cc3nc4sc5c(c4c(=O)[nH]3)CCCC5)CC2)cc1 | x | 0.8
CCC1=C[C@@H]2CN(C1)Cc1c([nH]c3ccccc13)[C@@](C(=O)OC)(c1cc3c(cc1OC)N(C)[C@H]1[C@@](O)(C(=O)OC)[C@H](OC(C)=O)[C@]4(CC)C=CCN5CC[C@]31[C@@H]54)C2 | 0.11 | x
c1ccc(-c2csc(N3CCc4ccccc43)n2)cc1 | 1.2 | -1.5
c1ccc2sc(COc3ncnc4sccc34)nc2c1 | x | 1.3

Two entries from above in a different format.
Every second line gives: LANA-nucl inh, BasE inh
CCCCn1c(COc2ccc(OC)cc2)nc2cc(S(=O)(=O)N3CCOCC3)ccc21
→ x, -2.2
COc1ccc(OC)c(Nc2nc3cc(C)ccc3cc2C)c1
→ 0.19, 2.8

Next section:
SMILES | LANA-nucl inh | BasE inh
O=C(CCSc1ccccc1)Nc1nnc(-c2ccccc2)o1 | 0.37 | 0.1
CC1CCC(C(C)C)C(NC(=S)Nc2cccc(F)c2)C1 (stereo not given) | x | 1.5
CN(C)S(=O)(=O)c1ccc(Cl)c(C(=O)OCC(=O)C(C)(C)C)c1 | x | 0.2
CN1CCc2c(sc3nc(=S)[nH]c(N)c23)C1 | 0.0015 | 1.1

Only part of the results is shown. The share of hits here may be higher or lower than overall.
